H5N1 CPE – MDCK cell protection from H5N1 avian flu; cytopathic effect, luminescence, 72 h; stronger effect = higher value; no value below 0 was filed and about half of the inactive calls have no number; reference of the scale not given here; inhibition, % at 50 µM; 96,000 tested, 0.07% active; AID 740; in the data active = inhibition above about 25%
* = called active by the depositor; i = inactive. Not all compounds are listed; rates above refer to the full screens.

item	mol	H5N1 CPE
1	CCCCNC(=O)CCn1c(=O)c2ccccc2n(CC(=O)N2CC(C)CC(C)C2)c1=O (stereo unspecified)	i
2	Cc1ccc2cccc(OC(=O)N3CCCC3)c2n1	i
3	O=C(c1csc2c1CCCC2)N1CCCCC1	0.9
4	Cc1ccc(S(=O)(=O)N(CC(=O)O)Cc2ccccc2)cc1	i
5	Cc1ccc(N2C(=O)C3C4C=CC(C4)C3C2=O)cc1 (stereo unspecified)	0.7
6	Cc1ccc(NC(=O)CN(C)S(=O)(=O)c2cnc[nH]2)cc1C	0.5
7	CC(=O)Nc1c(C(=O)c2ccc(F)cc2)oc2ccccc12	i
8	Cc1nnc(SCC(=O)N2CCN(Cc3ccccc3)CC2)s1	0.8
9	COC(=O)C1C(=O)C2=C(CC1C)NC(C)=C(C(=O)OC(C)C)C2c1ccc(C)o1 (stereo unspecified)	1.6
10	Cc1c(C(=O)Nc2ccc(C(=O)O)cc2)cnn1C	i
11	O=S1(=O)CC(O)C(Nc2ccccc2Cl)C1 (stereo unspecified)	0.6
12	CCCc1cc(C(=O)Nc2c(C)n(C)n(-c3ccccc3)c2=O)no1	0.8
13	O=C(Nc1ccccc1)N(Cc1cccnc1)Cc1ccco1	0.7
14	CCOC(=O)C(O)(C1C(=O)CC(C)(C)CC1=O)C(F)(F)F (stereo unspecified)	0.3
15	Cc1ccccc1-c1nnn(CC(=O)NCc2ccc3c(c2)OCO3)n1	i
16	Cc1cc(-n2c(C)cc(C(=O)CSc3ccc4c(c3)OCCO4)c2C)no1	0.6
17	O=C1Cc2cccc3cccc1c23	i
18	S=C(NCc1ccccn1)Nc1cccc(Cl)c1	0.1
19	CNC(=O)CSCCn1c(SCC(=O)NC)nc2ccccc2c1=O	i
20	COc1ccc(N2CCN(C(=O)CSc3nnc4c(C)cc5ccc(C)c(C)c5n34)CC2)cc1	2.2
21	CC(c1ccccc1)C1CC(=O)N(Cc2ccco2)C1=O (stereo unspecified)	0.2
22	C=C(C)COc1ccc(-c2n[nH]c(C)c2Oc2ccccc2OC)c(O)c1	0.9
23	CC(C)OCCCNC(=O)c1ccc(Br)cc1	1.2
24	Cc1cc(C)nc(N2CCCC(C(=O)Nc3nnc(C)s3)C2)n1 (stereo unspecified)	1.3
25	CCOC(=O)c1c(C)[nH]c(C(=O)OCC(=O)Nc2ccc(OCC)cc2)c1C	0.0
26	Cc1ccc(-n2c(O)c(C=NC3CCS(=O)(=O)C3)c3ccccc3c2=O)cc1C (stereo unspecified)	1.6
27	COc1ccc(NCc2ccc(OC)c(OC)c2)cc1	i
28	Cc1oc(C)c2c(=O)ccc3c(c12)OC(N)=C(C#N)C3c1ccccc1 (stereo unspecified)	i
29	CCOc1ccccc1C(=O)NCC(=O)OCC(=O)NCCc1ccc(S(N)(=O)=O)cc1	0.8
30	Cc1ccc(C)c(NS(=O)(=O)c2cc(C(=O)NCCC3=CCCCC3)ccc2C)c1	0.1
31	CCOC(=O)C1CCN(Cc2ccc(OC)cc2OC)CC1	i
32	CCC(C)N1C(=O)NC(=O)C2(Cc3cc(C)ccc3N(C)C2)C1=O (stereo unspecified)	i
33	CC(=O)c1sc(Nc2ccccn2)nc1C	5.9
34	Cc1cc(C)n(-c2ncc(-c3ccccc3)nn2)n1	6.8
35	O=S(=O)(c1ccc2nc(Cc3ccccc3)[nH]c2c1)N1CCOCC1	1.1
36	CC(=NCCC1=CCCCC1)c1c(O)[nH]c(=O)[nH]c1=O	i
37	CC1=CC(C)(C)N(C(=O)CSc2nnc(N)s2)c2cc(C)c(C)cc21	2.0
38	COCCN(C(=O)CN1CCCc2ccccc21)c1c(N)n(Cc2ccccc2)c(=O)[nH]c1=O	i
39	CCNS(=O)(=O)c1cc(OC)ccc1OC	i
40	Cc1ccc(S(=O)(=O)c2nc(-c3ccccc3)oc2NCCN2CCOCC2)cc1	0.1
41	CCOc1ccccc1/C=N/NC(=O)c1ccc(Cn2cc([N+](=O)[O-])cn2)o1	2.0
42	O=C(Nc1cc(C(F)(F)F)ccc1N1CCOCC1)c1ccccc1	1.3
43	O=C(CSc1ncccn1)N/N=C/c1cccs1	0.0
44	CCOc1ccc(C2c3c(oc4cc(C)c(C)cc4c3=O)C(=O)N2CCCN(C)C)cc1OC (stereo unspecified)	0.6
45	Cc1cc(C)n(-c2ccc(C(=O)NCc3cccs3)cc2)n1	i

Part of the list above, set out differently:
9	COC(=O)C1C(=O)C2=C(CC1C)NC(C)=C(C(=O)OC(C)C)C2c1ccc(C)o1 (stereo unspecified)
  H5N1 CPE: 1.6
10	Cc1c(C(=O)Nc2ccc(C(=O)O)cc2)cnn1C
  H5N1 CPE: i
11	O=S1(=O)CC(O)C(Nc2ccccc2Cl)C1 (stereo unspecified)
  H5N1 CPE: 0.6
12	CCCc1cc(C(=O)Nc2c(C)n(C)n(-c3ccccc3)c2=O)no1
  H5N1 CPE: 0.8

A second format for some results above:
[43] O=C(CSc1ncccn1)N/N=C/c1cccs1
  H5N1 CPE: 0.0
[38] COCCN(C(=O)CN1CCCc2ccccc21)c1c(N)n(Cc2ccccc2)c(=O)[nH]c1=O
  H5N1 CPE: i
[44] CCOc1ccc(C2c3c(oc4cc(C)c(C)cc4c3=O)C(=O)N2CCCN(C)C)cc1OC (stereo unspecified)
  H5N1 CPE: 0.6

Next records follow:
item	mol	H5N1 CPE
46	COc1ccc(C2C(C(=O)O)c3ccccc3C(=O)N2C)cc1Br (stereo unspecified)	3.6
47	CC1(C)CC(=O)c2cc(C(=O)NC3CCSC3=O)c(=O)n(-c3ccccc3)c2C1 (stereo unspecified)	1.7
48	COc1ccc(-n2c(N)c(C(=O)NCC3CCCO3)sc2=S)cc1 (stereo unspecified)	0.1
49	C/C(Cl)=C\Cn1c(NCCc2ccccc2)nc2c1c(=O)n(C)c(=O)n2C	13
50	CC(C)(C)c1ccc(OCC(=O)Nc2ccc(-c3nc4cccnc4o3)cc2)cc1	5.2
51	COc1ccccc1NC(=O)Cn1nnc(-c2ccccc2NC(=O)c2cc3ccccc3oc2=O)n1	0.2
52	CC(=O)SC(C)CC(=O)NCc1ccccc1 (stereo unspecified)	0.3
53	CCN(CCO)c1nc(SC)nc2c1sc1nc(-c3ccco3)c3c(c12)CCC3	i
54	CCCCCn1c(N2CCOCC2)nc2c1c(=O)n(CC(N)=O)c(=O)n2C	1.2
55	Cc1cc(C)n2nc(-c3ccsc3-n3c(C)ccc3C)cc2n1	2.2
56	Cc1cc(C)c2c(c1)/C(=N/NS(=O)(=O)c1ccccc1)CCC2	1.7
57	CCc1ccc(C2=Nn3c(nnc3-c3cccs3)SC2)cc1	8.8
58	CC(C)(C)n1nnnc1C(c1ccc(C#N)cc1)N1CCCC2(CCCCC2)C1 (stereo unspecified)	4.7
59	CC(C)OC(=O)CSc1nnc(SCc2cccc3ccccc23)s1	i
60	COc1cc2c(cc1OC)-c1cc(NCc3ccccn3)nc(=O)n1CC2	4.0

Structural class: those above with a cyano group (2)
item	mol	H5N1 CPE
28	Cc1oc(C)c2c(=O)ccc3c(c12)OC(N)=C(C#N)C3c1ccccc1 (stereo unspecified)	i
58	CC(C)(C)n1nnnc1C(c1ccc(C#N)cc1)N1CCCC2(CCCCC2)C1 (stereo unspecified)	4.7

Next section
No.	Compound	H5N1 CPE
61	Cc1cc(C)n2nc(C(=O)Nc3ccc4c(c3)OCO4)cc2n1	0.0
62	CCOCCCn1c(=S)[nH]c2cc(C(=O)NCCOC)ccc2c1=O	i
63	COc1cc2c(cc1OC)C(CC#N)=NC(C)(C)C2	0.1
64	Cc1ccc(C2CC(c3cccs3)n3nc(N)nc3N2)cc1 (stereo unspecified)	i
65	Oc1ccccc1-c1cc(C(F)(F)C(F)F)nc(-c2ccccc2)n1	i
66	C/C=C/C=[N+](\[O-])C(C)/C(=N/O)c1ccc(F)cc1 (stereo unspecified)	i
67	Cc1ccc(N2CCN(C(=O)N3CCCC3)CC2)cc1Cl	i
68	Cc1ccc(N(CC(=O)N2CCOCC2)S(=O)(=O)c2ccccc2)cc1	0.3
69	CCCCCCCCn1c(=O)c(C(=O)OCC)c(O)c2ccccc21	1.6
70	Cc1c(NC(=O)C2(c3ccccc3)CCCC2)c(=O)n(-c2ccccc2)n1C	i
71	Cc1cccc2cc(CN(CC3CCCO3)C(=O)c3cccnc3)c3nnnn3c12 (stereo unspecified)	3.0
72	Cc1nnc(SCC(=O)N2CCN(c3ccccc3)CC2)n1-c1ccccc1	0.8
73	Cc1c(NC(=O)Nc2ccc3c(c2)OCO3)c(=O)n(-c2ccccc2)n1C	0.7
74	O=S(=O)(CCc1nc2ccccc2s1)c1ccc(Cl)cc1	i
75	O=C(CN(Cc1ccccc1F)C(=O)Cn1nnc(-c2cccs2)n1)NC1CCCCC1	i
76	COc1ccc(OC)c(NC(=O)C2CCCN(S(=O)(=O)c3cccc4nonc34)C2)c1 (stereo unspecified)	0.4
77	Cc1cc2ccccc2n1CCNC(=O)Cc1ccccc1	i
78	O=C(O)CCCCCCCCCC(=O)c1cccs1	i
79	Cc1cc(Oc2ccc(-c3ccccc3)cc2)nc(N2CCOCC2)n1	i
80	Cc1cc(C)nc(SCC(=O)Nc2ccc(Br)cn2)n1	i
81	Cc1nc2nc(SCC(=O)NCCN3CCOCC3)nn2c(C)c1Cc1ccccc1	3.0
82	CCCc1ccc(-c2cc(C(=O)N/N=C/c3ccc([N+](=O)[O-])o3)c3ccccc3n2)cc1	i
83	O=C(Cn1c(=O)oc2cc(S(=O)(=O)N3CCCC3)ccc21)NC1CCCc2ccccc21 (stereo unspecified)	2.0
84	COc1ccc(C2CC(=O)C3=C(C2)Nc2ncnn2C3c2ccccc2C)c(OC)c1 (stereo unspecified)	i
85	COc1cc(S(=O)(=O)Nc2cccc(C(=O)O)c2)c(OC)cc1Cl	1.0
86	CC(=O)N=C1SC2CS(=O)(=O)CC2N1c1ccccc1Cl (stereo unspecified)	0.7
87	CCCS(=O)(=O)N1CCCC(c2nc(-c3ccc(OC)cc3)no2)C1 (stereo unspecified)	0.2
88	O=C(NCCN1CCc2ccccc2C1)Nc1ccc(F)cc1	0.0
89	Fc1ccccc1COc1ccc(-c2nnn(Cc3ccccc3F)n2)cc1	i
90	CCS(=O)(=O)N1CCC(C(=O)NCc2ccc(F)cc2Cl)CC1	i
91	O=C(C1CC(c2ccccc2O)=NO1)N1CCCC1 (stereo unspecified)	i
92	CC(C)n1c(N2CCN(C(=O)NCc3ccccc3)CC2)nc2ccccc21	i
93	COc1ccc(OC(C)C(=O)Nc2cccc(OC)c2)cc1 (stereo unspecified)	i
94	Cc1ccc(-c2nc3ccsc3c(=O)o2)cc1	0.1
95	Cc1nc2[nH]onc2c2nccc(=O)c12	0.0
96	CCOC(=O)CSc1nnc(-c2ccccc2OC)o1	i
97	COCCCNC(=O)C1CC(=O)N(CCc2ccccc2)C1 (stereo unspecified)	0.2
98	Cc1nn(Cc2ccc(F)cc2)c(C)c1NC(=O)c1cnn2cccnc12	3.3
99	O=C(CSCc1ccccc1Cl)N1CCN(c2ccccn2)CC1	1.9
100	CCOC(=O)CC1(c2ccccc2)CCOC(C)(C)C1 (stereo unspecified)	0.4
101	CCOC(=O)C(C)Oc1cccc2c(=O)n(CC(=O)Nc3ccc4c(c3)OCCO4)ccc12 (stereo unspecified)	2.1
102	Cc1cc2nc(C3CCN(CC4COc5ccccc5O4)CC3)[nH]c2cc1C (stereo unspecified)	i
103	CCN(CC)c1ccc(NC(=O)c2ccc(Cl)nc2)cc1	i
104	N#Cc1c(-c2ccccc2)cc(C2CC2)nc1SCC(=O)c1cccs1	i
105	CCCc1nc(SCC(=O)Nc2ccccc2OC)c2c(=O)n(C)c(=O)n(C)c2n1	1.3
106	Cc1snc(S(=O)(=O)Cc2c(Cl)cccc2Cl)c1C#N	2.5
107	Cc1cc2cc(CNC(=O)c3cccs3)ccc2[nH]1	i
108	O=C(CSc1nnc(-c2ccco2)n1Cc1ccccc1)NC(=O)NCc1ccco1	i
109	COC(=O)C1C2C=CC3(CN(c4ccc(Cl)c(F)c4)C(=O)C13)O2 (stereo unspecified)	1.4
110	COc1cccc(-c2cc(C(=O)O)no2)c1	i
111	O=C(CSc1nnnn1-c1ccc2c(c1)OCCO2)OC1CCCCC1	1.4
112	Cc1cc(OCC(=O)N2CCCC2)ccc1Cl	i
113	OCCN(Cc1ccccc1)Cc1ccccc1F	i
114	O=C(O)c1cn(-c2ccccc2)nc1-c1ccncc1	0.1
115	Cc1nc2ccc(F)cc2cc1C(=O)NC(C)C	1.4
116	O=C(NCc1cccs1)C1CCN(S(=O)(=O)c2cccc3nsnc23)CC1	0.3

Additional entries
No.	Compound	H5N1 CPE
117	Cn1c(=O)c2c(ncn2CC(=O)Nc2ccc(Cl)cc2Cl)n(C)c1=O	1.1
118	O=C(Nc1ccc(-n2cnnn2)cc1)C1CCCN1C(=O)NC1CCCCC1 (stereo unspecified)	i
119	CCOC(=O)c1nc(C)[nH]c1C(=O)OCC	i
120	N#Cc1c(NC(=O)CSc2nnc(-c3ccccc3)o2)sc2c1CCCC2	0.6
121	O=C(Nc1ccc(Cl)cc1)C1CCC(=O)N1Cc1ccccc1Cl (stereo unspecified)	i
122	O=C(Cc1cccs1)NCCn1ccc2ccccc21	0.3
123	CCCCCNC(=O)Cc1ccc(OC)cc1	0.7
124	COc1ccc(C(=O)Nc2ccc(S(=O)(=O)NC(C)=O)cc2)cc1	1.1
125	Cc1ccc(-c2cc(C(=O)NCc3cnn(C)c3C)c3cc(Br)ccc3n2)cc1	i
126	COCCOC(=O)C1=C(C)NC2=C(C(=O)CC(C)(C)C2)C1c1ccc2c(c1)OCO2 (stereo unspecified)	i
127	CCOC(=O)c1cc2c(=O)[nH]ccc2nc1C	1.1
128	CCOC(=O)CSc1nc2c(c(=O)n(C)c(=O)n2C)n1CCCc1ccccc1	0.9
129	CC1(C)OC(=O)C(=C2CCCN2)C(=O)O1	i
130	CCN(CC)c1ccc(CN2CC=C(c3ccc(F)cc3)CC2)cc1	0.6
131	COc1cnn(-c2ccc(C)cc2)c(=O)c1SCc1ccccc1	i
132	COc1ccc(OC2C(=O)N(Cc3ccc4c(c3)OCO4)C2c2sccc2C)cc1 (stereo unspecified)	3.1
133	Cc1cccc(OCC(O)Cn2c(NCCCOC(C)C)nc3c2c(=O)[nH]c(=O)n3C)c1 (stereo unspecified)	0.4
